# Bead autofluor = flagged as autofluorescent in microsphere protease counterscreen; AID 624483; hit rate 3.1% among 360,000; fluorescence intensity (no concentration beside the values); compound autofluorescence counterscreen, microsphere flow cytometry; stronger effect = higher value;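 active = at least 3 SD above the mean of all compounds, about 16000 in these data; inconclusive = too few beads counted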;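 note: 100 nL of 1 mM stock went into each well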
# PrP 5UTR inh = inhibition of PrP 5' UTR reporter expression | cell-based PrP 5' UTR mRNA reporter, plate reader | inhibition, % (no concentration beside the values) | hit rate 0.35% among 340,000;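 active = every replicate at 50% or more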;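 note: 0 = median of the neutral control wells; tested in H4 reporter cells; numbers are from one replicate; inactives centre near -14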
# Mtb hypoxia inh = reduces hypoxia-regulated biosensor signal in M. tuberculosis | fluorescence inhibition, % (concentration not given with the values) | hit rate 0.1% among 300,000 | M. tuberculosis hypoxia-regulated fluorescent reporter, fluorescence;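 active = 35 to 45% if threefold the growth effect, above 45% if 1.5-fold the growth effect; inactive = the rest, general growth blockers included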;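 note: wells of about 50 µL received 100 nL stock; 0% = vehicle wells and 100% = reference inhibitor wells; whole bacteria with a GFP reporter of the hypoxia response; strong numbers were not always called active; many hits fall short of the cut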
# ugtP null kill = kills S. aureus RN4220 lacking UgtP; S. aureus RN4220 ugtP deletion, OD600 growth, 16 h; some inactives read as strong as hits; growth inhibition, % (test concentration not listed); hit rate 0.54% among 330,000;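 active = z-score under -3 and OD600 up to 0.15 on both plates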;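 note: plate controls were untreated wells for no effect and antibiotic for full effect; wells of about 80 µL received 100 nL stock; the first replicate is given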
# Sa RN4220 lethal = kills Staphylococcus aureus RN4220; S. aureus RN4220 growth, OD600, 16 h; inhibition, % (no concentration beside the values); hit rate 0.33% among 330,000; AID 1259311;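 active = z-score of -3 or lower and OD600 up to 0.18 on both plates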;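 note: plate controls were untreated cells for no effect and reference antibiotic for full effect; stock transfer was 100 nL into about 80 µL; one replicate is shown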
# BJeLR viability = BJeLR cell viability loss. BJeLR (HRASV12) viability, CellTiter-Glo ATP luminescence, 48 h; reference of the scale not given here. inhibition, % (test concentration not listed). hit rate 0.17% among 300,000;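 active = replicate mean above 50%; inconclusive = above 50% but judged a plate artefact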;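 note: 50 nL library stock added to about 25 µL; numbers are from one replicate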
# Mtb hypoxia inh growth = second read-out of Mtb hypoxia inh, no call of its own (marks repeat the call); growth inhibition, %; measured here: M. tuberculosis growth (absorbance);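 0% = vehicle and 100% = reference antibiotic; read after six days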
# Numbers without * were called inactive; ? = inconclusive; . = not tested or not shown. Rows were taken by chance. Share with any hit: about 4%.
SMILES,Bead autofluor,PrP 5UTR inh,Mtb hypoxia inh,Mtb hypoxia inh growth,ugtP null kill,Sa RN4220 lethal,BJeLR viability
C#CCNC(=O)C1=CC(c2ccc(C#C)cc2)C(CCCO)C(OCC)O1 (stereo not drawn),.,.,11,6,-7,1.8,.
COc1ccc(C2=NN(C(=O)c3ccccc3)C(c3ccccc3)C2)c(O)c1 (stereo not drawn),3632,4,-10,5,-11,-0.5,-13
Cc1ccsc1C=Nc1ccc(O)cc1,16460*,-18,-9,5,-21,-4.3,5
O=C(CSc1nc2ccccc2s1)NCc1ccc2c(c1)OCO2,2517,19,11,5,3,-3.3,3
COc1ccc(NC(=S)NC(=O)c2ccc(Br)o2)cc1,2229,-89,4,4,18,3.1,4
COc1cccc(Nc2ncc(C#N)c(N)n2)c1,.,-6,0,-6,3,3.7,-22
CC(=O)c1cc2c(cc1NC(=O)C1CCC1)OCO2,2479,-4,4,2,6,6.8,-1
CC(=O)c1ccc(N2CCN(C(=O)Nc3ccc(C(C)C)cc3)CC2)cc1,4518,-37,2,4,8,1.7,11
O=C(c1ccc(C#CC2(O)CCCCC2)cc1)N1CCN(Cc2ccccc2)CC1,4589,-13,.,.,-13,2.2,2
O=C1N/C(=N\N=Cc2ccco2)SC1Cc1ccc(F)cc1 (stereo not drawn),.,.,6,8,10,-3.3,.
COc1ccccc1-c1nc2ccccc2nc1-c1ccccc1OC,2418,-6,7,10,50,6.1,7
COc1cc2c(cc1OC)C(c1cccc(Br)c1)CC(=O)N2 (stereo not drawn),3650,-20,14,14,11,3.9,9
CCn1cc(C(C)NC(=O)Nc2ccc3c(c2)OCO3)c(C)n1 (stereo not drawn),3771,-20,7,2,10,3.9,8
CC(=O)c1ccc(N2CCN(c3ccccc3O)CC2)c([N+](=O)[O-])c1,4494,-35,16,0,5,5.1,-17
CCOC(=O)C1(CCOC)CCN(Cc2nc(-c3cccs3)oc2C)CC1,4652,-16,4,8,4,2.0,3
O=C(COC(=O)c1ccco1)NCCc1ccc(Cl)cc1,3798,-5,-1,8,6,6.9,.
CN1CCN(C(=O)c2ccc3c(c2)N(Cc2ccc(Cl)cc2)C(=O)c2ccccc2S3=O)CC1 (stereo not drawn),5659,-60,.,.,5,-0.7,-4
CC(=O)Oc1ccc(/C=C(\NC(=O)c2ccco2)C(=O)NCc2ccco2)cc1,3096,-12,-2,-11,1,1.4,-7
CCC(=O)c1ccc(O)c(CC=C(C)C)c1,4670,-12,.,.,0,-3.9,3
CCOc1ccccc1C1C(C#N)=C(N)Oc2n[nH]c(CC)c21 (stereo not drawn),7060,1,11,7,17,11,-2
Cc1ccc(C(=O)NC(=S)Nc2ccc(N3CCOCC3)cc2)c(C)c1,3429,-31,8,21,12,-4.2,0
CC(CN(C)C)CN1c2ccccc2CCc2ccccc21 (stereo not drawn),5238,-13,0,4,-13,1.4,-1
O=C(CCN1C(=O)c2ccncc2C1=O)NCc1ccc(Cl)cc1,.,-12,18,5,0,3.5,2
COc1ccc(S(=O)(=O)N/N=C\c2ccc([N+](=O)[O-])o2)c(OC)c1,5217,-6,.,.,.,.,1
CC(Sc1nnc2ccccn12)C(=O)NCc1ccc2c(c1)OCO2 (stereo not drawn),4012,-9,-4,13,1,1.7,-9

# Filtered by structure: those above with a cyano group.
SMILES,Bead autofluor,PrP 5UTR inh,Mtb hypoxia inh,Mtb hypoxia inh growth,ugtP null kill,Sa RN4220 lethal,BJeLR viability
COc1cccc(Nc2ncc(C#N)c(N)n2)c1,.,-6,0,-6,3,3.7,-22
CCOc1ccccc1C1C(C#N)=C(N)Oc2n[nH]c(CC)c21 (stereo not drawn),7060,1,11,7,17,11,-2

# The main list resumes; the two compounds before the break are reprinted first.
SMILES,Bead autofluor,PrP 5UTR inh,Mtb hypoxia inh,Mtb hypoxia inh growth,ugtP null kill,Sa RN4220 lethal,BJeLR viability
COc1ccc(S(=O)(=O)N/N=C\c2ccc([N+](=O)[O-])o2)c(OC)c1,5217,-6,.,.,.,.,1
CC(Sc1nnc2ccccn12)C(=O)NCc1ccc2c(c1)OCO2 (stereo not drawn),4012,-9,-4,13,1,1.7,-9
CC1CCC(NC(=O)c2ccc(CS(=O)(=O)Cc3ccccc3F)o2)CC1 (stereo not drawn),2625,6,3,6,1,6.2,6
COc1cc(C(=O)NNC(=O)c2cc(=O)[nH]c3ccccc23)cc(OC)c1OC,6147,-66,-1,0,3,2.4,3
COc1ccccc1N1CCN(C2CCCN(C(=O)c3ccoc3)C2)CC1 (stereo not drawn),4744,1,-1,-1,11,2.3,-4
CCc1ccc(-n2nnnc2SCC(=O)Nc2ccc(NC(C)=O)cc2)cc1,3743,-19,4,-2,4,2.2,-7
CCN(CC)CCNC(=O)c1ccc(NC(=O)Cc2cccc3ccccc23)cc1,5988,-3,-6,0,9,6.7,-2
CCOc1ccc(N(CC(=O)Nc2ccccc2OC)S(=O)(=O)c2ccccc2)cc1,4042,11,7,2,-2,2.0,43
Cc1cccc(Oc2cc(NC(=O)Cn3cnc([N+](=O)[O-])n3)cc([N+](=O)[O-])c2)c1,2486,-11,-3,10,26,7.2,.
COc1ccccc1CNC(=O)COC(=O)C1CCN(S(=O)(=O)c2ccccc2)CC1,.,-15,10,-1,8,0.3,-4
Cc1cc(NN=Cc2ccc(O)cc2)c2cccc(C)c2n1,.,.,18,7,-9,2.8,.
COc1ccc(CC(=O)N2CCN(c3cccc(C)c3C)CC2)cc1,4224,-23,6,0,9,5.2,-5
CC(=O)C1=C(O)C(=O)N(CCC(=O)O)C1c1ccc(Cl)cc1Cl (stereo not drawn),9798,-9,2,-1,-1,0.8,0
Oc1ccc(C=NNc2ccnc3cc(Cl)ccc23)c(O)c1,.,.,17,5,10,9.7,.
OCCC1CN(Cc2cccc(O)c2)CCN1CCc1ccccc1 (stereo not drawn),3227,-19,2,8,10,-3.6,6
O=C(CSc1nc(-c2ccccc2)cs1)NC(=O)NCc1ccco1,11376,-12,7,-2,14,9.9,6
C/C=C/c1ccc(Oc2nnnn2-c2ccc(C(N)=O)cc2)c(OC)c1,2572,-20,.,.,1,-1.1,4
O=C(O)/C=C\C(=O)Nc1ccc(OC(F)F)cc1,3718,-18,3,-8,2,-2.8,8
O=S(=O)(Cc1ccccc1)NCC1CCCN(Cc2cccc3nonc23)C1 (stereo not drawn),3258,-9,16,3,5,9.7,-1
CCn1cc(C(=O)Nc2cccc(NC(C)=O)c2)c2cc(OC)c(OC)cc2c1=O,3349,-15,-4,-1,14,2.9,3
CC1CCCCN1CCNC(=O)CN1C(=O)CSc2ccc(S(=O)(=O)N3CCCCC3)cc21 (stereo not drawn),7313,-10,12,-1,7,1.8,14
CC(=O)NS(=O)(=O)c1ccc(NC(=S)NC(=O)C(C)(C)C)cc1,24672*,-14,10,4,4,2.6,1
COc1ccc(CC(=O)Nc2cc(S(C)(=O)=O)ccc2Cl)cc1S(=O)(=O)N1CCOCC1,4297,-22,16,7,7,2.9,.
CSc1ccccc1NC(=O)COC(=O)CCc1ccccc1,5703,-14,-4,12,6,-0.6,-5
Cc1nc2sc(C(c3cccs3)N3CC(C)CC(C)C3)c(O)n2n1 (stereo not drawn),6538,-26,9,8,-6,-13,0
CCCS(=O)(=O)N1CCN(C(=O)c2ccco2)CC1,4040,-16,1,5,2,1.4,-13
CC(=O)C(=NNc1ccc(Cl)cc1)Sc1nnc(-c2ccccc2)n1-c1ccccc1,.,.,11,5,0,6.9,.

# Ordered by heavy-atom count (ascending): four of the compounds above
SMILES,Bead autofluor,PrP 5UTR inh,Mtb hypoxia inh,Mtb hypoxia inh growth,ugtP null kill,Sa RN4220 lethal,BJeLR viability
CCCS(=O)(=O)N1CCN(C(=O)c2ccco2)CC1,4040,-16,1,5,2,1.4,-13
OCCC1CN(Cc2cccc(O)c2)CCN1CCc1ccccc1 (stereo not drawn),3227,-19,2,8,10,-3.6,6
C/C=C/c1ccc(Oc2nnnn2-c2ccc(C(N)=O)cc2)c(OC)c1,2572,-20,.,.,1,-1.1,4
Cc1cccc(Oc2cc(NC(=O)Cn3cnc([N+](=O)[O-])n3)cc([N+](=O)[O-])c2)c1,2486,-11,-3,10,26,7.2,.

# Other structures follow:
SMILES,Bead autofluor,PrP 5UTR inh,Mtb hypoxia inh,Mtb hypoxia inh growth,ugtP null kill,Sa RN4220 lethal,BJeLR viability
CC(C)c1ccc(OCC(=O)Nc2ccncc2)cc1,3498,-33,.,.,.,.,0
c1ccc2oc(-c3ccn[nH]3)cc2c1,3969,-52,10,12,4,3.3,8
COc1cccc(CN2CCC(Oc3ccc(C(=O)NCc4ccccn4)cc3)CC2)c1O,5580,-10,-15,-13,-10,-4.0,0
CCOC(=O)CSc1nnc(CSc2nc3sc4c(c3c(=O)[nH]2)CCCC4)n1-c1ccccc1,8453,-6,4,1,-23,9.8,-7
CSc1cccc(NC(=S)N2CCCN(Cc3cccc(Cl)c3)C2)c1,4636,-15,0,-4,-1,-4.6,2
CC(C)CC(c1nnnn1C1CCCCC1)N1CCN(C(=O)c2ccco2)CC1 (stereo not drawn),4268,4,0,1,4,5.1,-4
COc1ccc(Cl)cc1NC(=O)CCS(=O)(=O)c1ccc(C)cc1,3839,-12,19,6,4,-0.7,1
CC(Oc1ccc(Cl)cc1C(N)=O)C(=O)N1CCc2ccccc21 (stereo not drawn),4157,-26,-5,7,-2,1.4,.
C[C@H](CO)N1C[C@H](C)[C@@H](CN(C)S(=O)(=O)c2cccs2)Oc2ccc(NC(=O)CCC(F)(F)F)cc2C1=O,2960,1,1,1,11,24,.
NC(=O)c1ccccc1OCC(=O)N1CCCc2ccccc21,5598,-22,1,-2,1,3.2,-5
Fc1ccccc1/C=N/n1c(C2CCCCC2)n[nH]c1=S,3716,-8,.,.,.,.,0
CC(=O)c1ccc(NC(=O)C2CC(c3ccc(F)cc3)=NO2)cc1 (stereo not drawn),23509*,-24,10,11,-7,-1.8,-6
CC[C@H](C)C(C(=O)N1CCN(C(=O)OC(C)(C)C)CC1)n1cc(C(Cc2ccc(O)cc2)NC(=O)OC(C)(C)C)nn1 (stereo partly drawn),3781,-17,.,.,.,.,4
Oc1ccc(Cl)cc1C=NCCc1ccccc1,6803,-33,9,6,2,8.0,-13
O=C(COc1ccc2c(c1)OCO2)Nc1nnc(Cc2ccccc2)s1,3723,-17,15,-2,5,3.0,-5
COc1ccc(CCNC(=O)CSc2nc3cc(Cl)ccc3o2)cc1OC,2453,-10,8,14,2,3.9,2
CSCCC(NC(=O)c1ccco1)C(=O)N(C)CC(=O)Nc1ccccc1Br (stereo not drawn),?,-22,2,-1,3,6.9,.
O=C(CN(C(=O)C1CSC(=O)C1)c1cccc(F)c1)NCc1ccc2c(c1)OCO2 (stereo not drawn),3424,-5,-14,0,8,6.0,-6
O=C(O)c1cc(NCc2ccc3c(c2)OCO3)ccc1N1CCOCC1,?,-3,3,2,2,3.8,6
NC(=O)C1CCN(c2nc3ccccc3nc2NS(=O)(=O)c2ccc(Br)cc2)CC1,3042,-3,-9,3,-21,-5.5,.
CC1=NOC2(C1)C(=NO)CCCC2=NO (stereo not drawn),.,.,-5,1,0,4.0,.
O=C(c1cc([N+](=O)[O-])cc([N+](=O)[O-])c1)N1CCOCC1,2410,-19,-2,5,11,0.4,-14
N#Cc1cc2c(cc1NC(=O)CCn1cnnn1)OCO2,5556,-6,8,-3,-7,4.7,-6
CCOc1ccc(/C=C2\SC(=O)N(c3ccc(O)cc3)C2=O)cc1OC,.,.,4,-12,7,1.4,-7
Cc1ccc(C(=O)Nc2ccccc2C(=O)NC(Cc2c[nH]c3ccccc23)C(=O)O)cc1 (stereo not drawn),4743,-21,0,-7,-14,2.4,3
# Next section.
SMILES,Bead autofluor,PrP 5UTR inh,Mtb hypoxia inh,Mtb hypoxia inh growth,ugtP null kill,Sa RN4220 lethal,BJeLR viability
CCOC(=O)N/N=C\c1sccc1C,2323,-23,.,.,.,.,1
CCn1c(CC(=O)Nc2ccc(C)cc2)n[nH]c1=S,4044,-13,-10,1,-3,-0.8,5
OC1CCN(CC(O)C(F)(F)F)CC1 (stereo not drawn),4223,-15,8,2,5,-0.1,0
O=C(O)CS/C(=C\c1ccc(F)cc1)c1nc2ccccc2s1,.,.,13,-5,0,11,1
COc1cc(C(=S)N2CCCC2)cc(OC)c1OS(=O)(=O)c1ccc(NC(C)=O)cc1,7189,-5,-2,-4,8,5.5,2
C#CCN1C(=O)C(O)(CC(=O)/C=C/c2ccco2)c2ccccc21 (stereo not drawn),2535,-7,10,4,-3,1.3,-8
COc1ccc(Oc2cn[nH]c2-c2ccc(O)cc2O)cc1,2561,-9,12,9,8,-13,-13
COc1cccc(OC)c1C(=O)OCC(=O)Nc1cccnc1Cl,3213,-1,13,-3,2,-0.9,-2
